Rce1 inh = inhibitors of yeast Ras-converting enzyme. Q03530. yeast membranes, quenched prenylated peptide cleavage fluorescence. calls only. actives 0.27% (n = 290,000). AID 2563;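 active means fall in fluorescence gain of 50% or more versus controls, with final raw signal at or below 3038400; inconclusive means same 50% fall but final raw signal above 3038400; inactive means fall in fluorescence gain under 50%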;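 further: plate controls were neutral control wells for no effect and wells lacking membranes for full effect; tested at 10 µM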
Target sequence (Q03530 whole entry, looked up): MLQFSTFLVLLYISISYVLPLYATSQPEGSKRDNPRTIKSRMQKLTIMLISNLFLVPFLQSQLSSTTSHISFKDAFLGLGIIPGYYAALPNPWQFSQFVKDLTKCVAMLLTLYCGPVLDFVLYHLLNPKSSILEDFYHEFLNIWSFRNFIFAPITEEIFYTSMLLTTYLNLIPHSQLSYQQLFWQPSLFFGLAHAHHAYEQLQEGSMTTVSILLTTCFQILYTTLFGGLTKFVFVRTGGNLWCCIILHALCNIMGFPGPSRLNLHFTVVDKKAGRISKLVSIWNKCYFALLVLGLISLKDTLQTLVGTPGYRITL
UUG fidelity = modulators of start codon recognition fidelity in yeast | S. cerevisiae UUG-firefly luciferase reporter, luminescence/redox ratio | activity score, % at 18.7 µM | actives 0.13% (n = 350,000);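 active means replicate mean at a twofold rise or more, about +100% in these data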;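 further: firefly luciferase made from a UUG start codon reports start codon fidelity; reporter light over untreated wells divided by growth signal over untreated wells; some hits fall short of that in this replicate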
CSC inhib = cancer stem cell inhibition | actives 1.1% (n = 300,000) | inhibition, % at 7.5 µM | cancer stem cell-like cells viability, luminescence;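 active means mean at 75% or more and at least half the replicates too; inconclusive means mean and replicates disagree; tested in HMLE shEcad cells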;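 further: 0% = median of negative and 100% = median of positive control wells; the first replicate is given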
HIV Env fusion = blocks HIV Env-driven cell-cell fusion | actives 1.1% (n = 360,000) | inhibition, % at 12.3 µM | HeLa-JRFL Env/CEM21 cell fusion, luciferase | AID 651610;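 active means mean replicate inhibition score of at least 50 and every replicate individually at or above 50; inconclusive means only one of the two criteria met; inactive means mean below 50 and not all replicates reaching 50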;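 further: 0% = plate neutral controls and 100% = maraviroc near 300 nM; one replicate is shown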
MT1-MMP act inh = blocks activation of human MT1-MMP; P50281; HT1080 RFP-PRO-GFP cells, GFP/RFP ratio fluorescence, overnight; percent of plate control window, DMSO zero; GFP/RFP ratio change, % at 20 µM; actives 0.061% (n = 360,000); AID 651647;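 active means GFP/RFP ratio change of at least 30% with cell ATP level not reduced by more than half and red fluorescence within 50% of control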; further: strong numbers were not always called active
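Assay system: RFP-PRO-GFP reporter HT1080 cells; read-out basis: GFP/RFP fluorescence ratio; benchmarks: DMSO wells and RFP-L50D-GFP cells; doses: 20 µM single dose, 1% DMSO; schedule: overnight cell settling, then overnight compound exposure, 37 °C, 5% CO2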
eIF4H inh = inhibitors of RNA binding by human eIF4H; inhibition, % at 35 µM; actives 0.94% (n = 290,000); AID 2012; eIF4H fluorescence polarization binding assay;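 active means 50% or more with normal probe brightness, or confirmed in later tests; inconclusive means above 50% with abnormal brightness, or retests that disagree; inactive means below 50% or failed in later tests; about a fifth of its hits are not listed in these tables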;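 further: calls also rest on retests at 20 µM and on dose response follow-up; 0% = protein and probe with vehicle and 100% = probe without protein; strong numbers were not always called active; many hits fall short of the cut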
PABP polyA inh = PABP-poly(A) binding inhibition | actives 1% (n = 290,000) | PABP-poly(A) RNA binding, fluorescence polarization | P11940 | inhibition, % at 35 µM;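 active means 50% or more with normal probe brightness, or confirmed in later tests; inconclusive means above 50% with abnormal brightness, or retests that disagree; inactive means below 50% or failed in later tests; about a fifth of its hits are not listed in these tables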;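 further: calls also rest on retests at 20 µM and on dose response follow-up; controls were probe without protein and protein plus probe with vehicle; some compounds called inactive have numbers as strong as hits; many hits fall short of the cut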
Target sequence (P11940 whole entry, looked up): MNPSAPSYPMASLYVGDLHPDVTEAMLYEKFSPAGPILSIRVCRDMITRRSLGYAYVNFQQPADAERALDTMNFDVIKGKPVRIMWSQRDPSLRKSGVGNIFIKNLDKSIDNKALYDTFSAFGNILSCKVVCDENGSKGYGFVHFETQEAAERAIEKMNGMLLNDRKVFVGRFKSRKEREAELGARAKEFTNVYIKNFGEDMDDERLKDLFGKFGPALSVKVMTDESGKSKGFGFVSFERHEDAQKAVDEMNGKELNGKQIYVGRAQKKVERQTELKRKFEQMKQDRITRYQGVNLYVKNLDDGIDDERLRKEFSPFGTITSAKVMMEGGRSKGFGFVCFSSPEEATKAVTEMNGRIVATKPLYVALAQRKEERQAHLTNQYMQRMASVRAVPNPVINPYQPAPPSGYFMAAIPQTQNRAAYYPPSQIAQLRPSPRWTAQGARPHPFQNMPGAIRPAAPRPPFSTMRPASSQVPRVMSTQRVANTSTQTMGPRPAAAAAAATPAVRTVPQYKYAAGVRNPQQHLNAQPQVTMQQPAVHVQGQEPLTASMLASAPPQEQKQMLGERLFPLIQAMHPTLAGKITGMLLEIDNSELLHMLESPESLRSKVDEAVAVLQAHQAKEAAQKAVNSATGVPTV
eIF4H inh retest = recorded beside eIF4H inh, whose call it bears; inhibition, %; compound at 20 µM; confirmation average;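 mean of two retest wells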
PABP polyA inh retest = further read-out of PABP polyA inh, marked with its call; inhibition, %; compound at 20 µM; confirmation repeats;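 mean of two retest wells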
MT1-MMP act inh RFP = further read-out of MT1-MMP act inh, marked with its call; RFP signal change, %; measured here: RFP expression control read;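 0 = vehicle wells; hits needed this value within 50% of zero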
An asterisk follows results filed as active; i = inactive; ? = inconclusive; nt = not tested or not shown.

SMILES	Rce1 inh	UUG fidelity	CSC inhib	HIV Env fusion	MT1-MMP act inh	MT1-MMP act inh RFP	eIF4H inh	PABP polyA inh	others
CSc1sc(C(=O)O)c2c1C(=O)CC(C)(C)C2	i	-2	-14	-1	-1	3	nt	nt
N/C(CN1CCCC1=O)=N\O	i	5	3	3	-1	1	-16	4
CC(=O)N(c1ccc2oc(=O)sc2c1)S(=O)(=O)c1ccc(C)cc1	i	9	13	-9	4	1	-3	-7
COC(=O)C1=C(C)N(Cc2ccccc2)C(=NCc2ccccc2)N[C@H]1c1cccc(C(F)(F)F)c1	nt	7	122*	nt	-4	-3	nt	nt
CC(C)=CC(=O)Nc1cccc(S(=O)(=O)NC2=NCCCCC2)c1	nt	-2	-12	nt	3	-2	nt	nt
O=C(COc1ccc(/C=C\[N+](=O)[O-])cc1)N1CCOCC1	i	nt	13	15	-2	-1	3	12
Cc1ccc(Nc2nnc(SCC(=O)Nc3cccnc3Cl)s2)cc1C	i	-8	9	-30	-1	-3	-2	6
CCNC(=O)NC(=O)COC(=O)c1cccc(NS(=O)(=O)/C=C/c2ccccc2)c1	i	12	-1	1	4	2	-8	5
Cn1c(=O)oc2cc(S(=O)(=O)NCCC(=O)NCCc3ccc(Cl)cc3)ccc21	i	nt	0	?	-7	0	11	8
COc1ccccc1NC(=O)Nc1nc(C(N)Cc2ccc(C(F)(F)F)cc2)cs1 (centres undefined)	nt	-21	nt	-26	1	-6	nt	nt
Cc1ccc(CN(Cc2ccco2)C(=S)Nc2ccccc2C)cc1	i	nt	9	-2	-6	-2	-1	-4
COc1ccc(N2CC(C(=O)OCC(=O)Nc3cc(C)on3)CC2=O)cc1 (centres undefined)	i	2	nt	19	4	4	-4	-7
O=C(c1ccccc1)c1nn(-c2ccc(Cl)cc2)cc1C(=O)c1cc2ccccc2oc1=O	i	-10	29	19	1	-7	21	49
O=c1[nH]c(CN2CCOCC2)nc2scc(-c3ccccc3)c12	i	nt	-6	-26	2	4	8	-4
CN(CC(=O)Nc1ccccc1C(F)(F)F)C(=O)c1cc(-c2cccs2)nn1-c1ccccc1	i	nt	59	-18	-1	3	nt	nt
COc1ccccc1OCCSc1nc2ccccc2c(=O)[nH]1	i	-39	15	-21	8	1	-1	-4
COc1ccc(/C=C2\SC(=S)N(CCC(=O)Nc3ccc(C(=O)O)cc3)C2=O)cc1OC	i	-8	7	nt	-3	-1	1	-4
CCc1ccccc1NC(=O)c1noc(C(C)C)c1[N+](=O)[O-]	i	nt	-8	-22	4	7	-9	-10
CCN(CC)C(=O)CN(c1ccc(C)cc1)S(=O)(=O)c1ccc(SC)cc1	i	-8	9	-19	1	1	-4	-5
Oc1ccc(-c2cnns2)c(O)c1	i	nt	10	17	-30	-7	15	-5

Among those listed so far, these contain a carbonyl joined to an NH by a bond outside any ring.
SMILES	Rce1 inh	UUG fidelity	CSC inhib	HIV Env fusion	MT1-MMP act inh	MT1-MMP act inh RFP	eIF4H inh	PABP polyA inh	others
CC(C)=CC(=O)Nc1cccc(S(=O)(=O)NC2=NCCCCC2)c1	nt	-2	-12	nt	3	-2	nt	nt
Cc1ccc(Nc2nnc(SCC(=O)Nc3cccnc3Cl)s2)cc1C	i	-8	9	-30	-1	-3	-2	6
CCNC(=O)NC(=O)COC(=O)c1cccc(NS(=O)(=O)/C=C/c2ccccc2)c1	i	12	-1	1	4	2	-8	5
Cn1c(=O)oc2cc(S(=O)(=O)NCCC(=O)NCCc3ccc(Cl)cc3)ccc21	i	nt	0	?	-7	0	11	8
COc1ccccc1NC(=O)Nc1nc(C(N)Cc2ccc(C(F)(F)F)cc2)cs1 (centres undefined)	nt	-21	nt	-26	1	-6	nt	nt
COc1ccc(N2CC(C(=O)OCC(=O)Nc3cc(C)on3)CC2=O)cc1 (centres undefined)	i	2	nt	19	4	4	-4	-7
CN(CC(=O)Nc1ccccc1C(F)(F)F)C(=O)c1cc(-c2cccs2)nn1-c1ccccc1	i	nt	59	-18	-1	3	nt	nt
COc1ccc(/C=C2\SC(=S)N(CCC(=O)Nc3ccc(C(=O)O)cc3)C2=O)cc1OC	i	-8	7	nt	-3	-1	1	-4
CCc1ccccc1NC(=O)c1noc(C(C)C)c1[N+](=O)[O-]	i	nt	-8	-22	4	7	-9	-10

(cont.)
SMILES	Rce1 inh	UUG fidelity	CSC inhib	HIV Env fusion	MT1-MMP act inh	MT1-MMP act inh RFP	eIF4H inh	PABP polyA inh	others
CC(=O)c1ccc(OCC(=O)NC2CCCN(Cc3ccccc3F)C2)cc1 (centres undefined)	i	-11	nt	5	2	3	-4	0
Cc1ccccc1Nc1cc2ccccc2c(=O)[nH]1	i	nt	14	nt	-24	8	6	13
CCC(=O)c1c(NC(C)C)cc(C)oc1=O	i	nt	-2	-27	2	5	0	-11
CCc1sc(C(=O)Nc2ccsc2C(=O)OC)cc1Br	i	nt	nt	nt	-6	-2	0	0
CCOC(=O)CNc1nc(C#N)nc(N2CCOCC2)n1	i	3	3	-5	4	2	-3	-3
O=C(CN1CCc2ccccc21)NC(=O)NCc1ccccc1	i	nt	-10	-11	-2	8	-7	23
Cc1cccc([C@@H]2[C@@H]3C(=O)N(Cc4ccccc4)C(=O)[C@@H]3[C@]3(Cc4ccc(Cl)cc4)C(=O)N(c4ccc(Br)cc4)C(=O)N23)c1	i	9	-4	28	4	-2	-4	-2
COc1cccc(N2CCN(C(=O)C3CCN(S(=O)(=O)c4ccc5c(c4)oc(=O)n5C)CC3)CC2)c1	i	-7	0	4	3	-2	nt	nt
CC(C)C[C@H](NC(=O)Nc1cccc(C(F)(F)F)c1)C(=O)O	i	-23	-5	nt	-2	4	0	2
COC(=O)CCCC1=CC2=CC(=O)C(C)(OC(=O)c3cccs3)C(=O)C2=CN1CC1CC1 (centres undefined)	i	6	2	-2	1	8	46	33

Molecules from the list above containing bromine (2):
SMILES	Rce1 inh	UUG fidelity	CSC inhib	HIV Env fusion	MT1-MMP act inh	MT1-MMP act inh RFP	eIF4H inh	PABP polyA inh	others
CCc1sc(C(=O)Nc2ccsc2C(=O)OC)cc1Br	i	nt	nt	nt	-6	-2	0	0
Cc1cccc([C@@H]2[C@@H]3C(=O)N(Cc4ccccc4)C(=O)[C@@H]3[C@]3(Cc4ccc(Cl)cc4)C(=O)N(c4ccc(Br)cc4)C(=O)N23)c1	i	9	-4	28	4	-2	-4	-2

(cont.)
SMILES	Rce1 inh	UUG fidelity	CSC inhib	HIV Env fusion	MT1-MMP act inh	MT1-MMP act inh RFP	eIF4H inh	PABP polyA inh	others
O=C(Cc1ccccc1)N/N=C/c1ccccc1OCc1ccc(Cl)cc1	i	-16	22	nt	3	-1	4	10
COc1cccc(/C(C)=N/Nc2ccc(S(=O)(=O)N3CCCCC3)cn2)c1	nt	-18	-1	-64	2	-5	nt	nt
Cc1c(NC(=O)c2c(N)n(-c3ccccc3)c3nc4ccccc4nc23)c(=O)n(-c2ccccc2)n1C	i	nt	4	nt	nt	nt	6	10
Cc1nc(N2CCN(C(=O)c3ccco3)CC2)c(C#N)c2c1CCCC2	i	-6	18	-1	-2	-4	-8	-2
CCn1c(CNC(=O)c2ccco2)nnc1SCC(=O)Nc1cc(F)ccc1C	i	-11	nt	8	3	2	-2	-2
Cc1ccc(C(=O)N/C(=C\c2cccs2)C(=O)N2CCOCC2)cc1C	nt	-2	-6	0	1	2	-2	4
O=C(CCNS(=O)(=O)c1ccccc1)NNC(=O)c1cccc(Cl)c1	nt	-12	-9	-1	-2	-1	nt	nt
COc1ccc(/C=C2\SC(=S)N(CCC(=O)N3CCOCC3)C2=O)cc1OC	nt	1	nt	6	2	2	nt	nt
Cc1ccc2c(c1)N(CC(=O)NCCCN1CCOCC1)C(=O)c1cccnc1O2	i	-20	nt	-16	6	4	4	-6
CC(=O)N1c2ccc3ccccc3c2C2C=CCC2C1c1ccc(Br)cc1 (centres undefined)	nt	nt	16	nt	nt	nt	36	7
COc1ccc(OCCCC(=O)Nc2cccnc2)cc1	i	nt	-4	nt	3	0	0	-4
CCc1ccc(-n2c(=O)c3c(C)c(C)sc3n(CC(=O)NCC3CCCO3)c2=O)cc1 (centres undefined)	i	nt	-21	2	5	2	14	-5
CC1(C)CC(=O)C(C=Nc2ccc3[nH]ncc3c2)=C(O)C1	i	-14	-11	nt	-1	2	6	19
O=C(OC1CCCCC1=O)c1cc(Cl)ccc1[N+](=O)[O-] (centres undefined)	i	nt	1	6	-1	-1	-3	-8
O=C(/C=C/c1ccco1)N(c1ccccn1)c1ccccn1	i	nt	-10	9	-5	4	101*	14	eIF4H inh retest=90*;PABP polyA inh retest=41
Cc1ccc(CC2C(=O)N(c3cc(Cl)ccn3)C(=O)C2C)cc1 (centres undefined)	i	nt	-14	-1	5	3	2	-2
Cc1cccc(-n2c(O)c(C=Nc3ccccc3)c3ccccc3c2=O)n1	i	-20	3	-3	1	-3	-4	-2
C=CCNC(=S)NC1CC(C)(C)NC(C)(C)C1	i	nt	nt	16	1	2	-7	5
OCCC1CN(CCCc2ccccc2)CCN1CCc1ccccc1 (centres undefined)	i	-6	27	4	-3	2	22	2
CCC(CC)C(=O)Nc1c2c(nn1-c1ccc(C)cc1)CS(=O)(=O)C2	i	3	-20	-13	5	4	-3	-12
O=C(NCC1CCCO1)c1nc2c(nnn2Cc2ccc(F)cc2)c(=O)[nH]1 (centres undefined)	i	-13	-3	-32	5	4	2	5
O=c1cccc(-c2ccc(Br)cc2)o1	i	-19	-2	nt	-1	-2	6	-9
O=c1[nH]nc(Sc2ccccc2)c(=S)[nH]1	nt	-5	nt	-2	-3	-1	nt	nt
COc1ccc(S(=O)(=O)NCc2cc(=O)n(C)c(=O)n2C)cc1F	i	0	0	-4	-3	3	-8	-2
Nc1nc(SCC(=O)Nc2ccc([N+](=O)[O-])cc2)[nH]c(=O)c1NC(=O)c1ccc(Br)o1	i	-5	0	-14	-2	6	-1	5
CN(CC(=O)Nc1c(Cl)cccc1Cl)C(=O)c1cc(S(=O)(=O)N(C)C)ccc1N1CCCC1	i	6	3	-1	-4	-6	nt	nt
COc1cccc(NC(=S)N(CCCN2CCC(C)CC2)Cc2cccs2)c1	i	-13	9	-1	6	5	-3	7
COc1cc(OC)c(OC)cc1/C=N/NC(=O)CSc1ccccc1F	i	-13	-14	18	0	2	4	-10
COC(=O)c1ccc(S(=O)(=O)N(Cc2ccccc2)Cc2ccccc2)n1C	i	nt	23	2	-1	-3	-9	4
O=C(CS(=O)(=O)c1ccc(Cl)cc1)Nc1nnc(-c2cccs2)o1	i	-3	-8	-8	-2	3	nt	nt
CCOC(=O)N1CCN(C(=O)C(C)NC(=O)c2ccco2)CC1 (centres undefined)	i	-3	-4	-10	-2	1	-12	-3
O=C(CSC1=NCCN1)NC12CC3CC(CC(C3)C1)C2	i	-21	0	nt	11	7	8	10
Cn1ccnc1C1CCCCN1C(=O)c1cc(COc2ccc(F)cc2F)on1 (centres undefined)	i	-20	-14	-14	-5	-3	-5	3
